# H5N1 CPE: MDCK cell protection from H5N1 avian flu; AID 740; cytopathic effect, luminescence, 72 h; active compounds read high; no value below 0 was filed and about half of the inactive calls have no number; reference of the scale not given here; inhibition, % at 50 µM; hit rate 0.07% among 96,000; in the data active = inhibition above about 25%
# * hit, by the source's call; i = inactive. Not all compounds are listed (hit frequency here may not be typical).
SMILES,H5N1 CPE
Cc1c(CCC(C)C)c(=O)n2c([nH]c3ccccc32)c1C#N,i
COc1ccc(C2SCCN2S(=O)(=O)c2ccc(F)cc2)cc1OC (configuration not stated),0.6
Oc1ccc2ccccc2c1/C=N/n1cnnc1,1.8
Cc1ccc(-n2c(C)cc(C3N=C(N)Nc4nc5ccccc5n43)c2C)c(C)c1 (configuration not stated),i
O=[N+]([O-])c1cc(/C=N/N2CCN(C3c4ccccc4-c4ccccc43)CC2)ccc1Cl,0.1
CCOC(=O)CSc1nc(NCc2ccco2)c2ccccc2n1,0.1
Cc1ccc(C2C3=C(CC(C)(C)CC3=O)Nc3[nH]c(=S)[nH]c(=O)c32)cc1 (configuration not stated),0.7
CCOC(=O)c1cnc(SCc2nc(N)nc(Nc3ccccc3OC)n2)nc1N,i
Cc1cccnc1NC(=O)c1c(O)c2ccccc2n(C)c1=O,i
COc1cc(OC)c(C2CC(=O)N3CN(c4ccc(C)cc4)CSC3=C2C#N)cc1OC (configuration not stated),i
CCC(=O)Nc1nonc1-c1nc2ccccc2n1CCC(C)C,i
C=CCNc1ncnc2c1ncn2C1OC(CO)C(O)C1O (configuration not stated),0.4
CCN(c1ccccc1)S(=O)(=O)c1ccc(F)cc1,2.4
COC(=O)c1nc(-c2ccccc2)oc1N(C)C,i
CCOC(=O)Cc1csc(NC(=S)NC(=O)c2ccc(Cl)cc2)n1,0.6
O=C(Nn1c(O)c(C=C2N=c3ccccc3=N2)sc1=S)c1cccc(Cl)c1,i
CC(C)(C)SCCNS(=O)(=O)c1ccc(F)cc1,2.3
O=C1CC(C(=O)Nc2ccc(O)c(C(=O)O)c2)C(c2ccccc2)O1 (configuration not stated),0.6
O=C(CN1C(=O)c2ccccc2S1(=O)=O)N1CCc2ccccc2C1,i
Cc1cc(C)c(-c2cc(C(F)(F)F)no2)c(=O)[nH]1,i
CCCc1cc(C(=O)N2CCN(c3ccccc3C)CC2)cs1,0.2
CCOC(=O)Cc1csc(SCC(=O)c2c(N)n(CC(C)C)c(=O)n(C)c2=O)n1,0.7
CCOc1ccc(-c2nc(C#N)c(N3CCN(CC)CC3)o2)cc1,0.8
COc1ccc(F)cc1S(=O)(=O)N1CCC(C(N)=O)CC1,0.1
COc1ccc(Nc2nc(Nc3ccc(OC)cc3)nc(-n3[nH]c(=O)c(C)c3C)n2)cc1,i
Cc1ccc2nc(NC(=O)c3ccc4c(c3)OCO4)sc2c1,i
C=CCn1c(SCC(=O)NCc2ccccc2)nnc1-c1cc(Br)ccc1O,i
O=C(Nc1ncc(Cc2cccc(Cl)c2)s1)C1=NCCN1,i
CCCS(=O)(=O)C(=C(Nc1ccccc1)Nc1ccccc1)S(=O)(=O)CCC,i
COc1ccc(OC)c(NC(=O)CSc2nnc(CNC(=O)c3ccco3)o2)c1,i
COc1ccc(CNC(=O)CN(C(=O)c2cc3sccc3n2C)C2CCCC2)cc1,i
CCNS(=O)(=O)c1ccc(CCC(=O)Nc2cc(Cl)ccc2Oc2ccccc2)cc1,i
CCOC(=O)Cn1c(S(=O)(=O)Cc2ccccc2Cl)nc(-c2ccccc2)c1-c1ccccc1,0.6
CCSc1nc2nn(-c3ccccc3)c(=O)c-2c2n1CCCCC2,2.6
O=C(CN1C2CCC1CC(NC(=O)C1CC1)C2)NCc1ccccc1 (configuration not stated),0.7
COc1cc(C2C(C(=O)Nc3ccccc3OC)=C(C)Nc3ncnn32)ccc1O (configuration not stated),i
Cc1ccc(-c2nc3ccccc3[nH]2)cc1NC(=S)NC(=O)c1ccccc1Br,i
COc1ccc(OC)c(NC(=O)c2cnc3n(c2=O)CCS3)c1,1.6
O=S(=O)(Cc1cc(Sc2ccc(Cl)cc2)nc(-c2ccccc2)n1)c1ccccc1,i
Cc1ccsc1C1NC(=O)c2c(sc3c2CCN(C)C3)N1 (configuration not stated),0.9
O=C(NC1CCCC1)C(c1ccc(Cl)cc1)N1CCc2ccccc21 (configuration not stated),i
CCOC(=O)C1CCCN(C(=O)c2cn(CC)c(=O)c3cc(OC)c(OC)cc23)C1 (configuration not stated),i
c1ccc(OCc2nc3ccccc3[nH]2)cc1,i
CCn1c(CSc2nc3ccccc3n2C)nc2ccccc21,0.8
Cc1ccc(S(=O)(=O)Nc2nc3n(n2)C(c2ccc(Cl)cc2)CC(=O)N3)cc1 (configuration not stated),0.1
Cc1cc(C)nc(-n2nc(C)c3c(=O)[nH]c(C(F)(F)F)nc32)n1,0.1
CCOC(=O)C(NC(=O)N1CCCCC1)(c1ccccc1)C(F)(F)F (configuration not stated),0.2
COc1ccc(-c2nnn(CC(=O)N(C3CCCCC3)C(C)C(=O)NC3CCCC3)n2)cc1OC (configuration not stated),0.2
CCOC(=O)Cn1c(=N)n(CCOc2ccc(OC)cc2)c2ccccc21,i
O=C(Nc1ccc(S(=O)(=O)Nc2ncccn2)cc1)c1ccco1,i
Cc1ccc(NC(=O)c2ccc(CSc3nccc(C)n3)cc2)cc1,i
CC1(c2ccccc2)CC(c2ccccc2)=Nc2nonc2N1 (configuration not stated),3.0
O=C1C(Cl)=C(NCC2CCCO2)C(=O)N1c1cccc(Cl)c1Cl (configuration not stated),0.6
CCCc1[nH]nc2c1C1(C(=O)N(Cc3ccccc3)c3ccccc31)C(C(=O)OC)=C(N)O2 (configuration not stated),10
COc1cccc(NC(=O)c2ccc(-n3cccn3)nc2)c1,9.7
COc1ccc(NC(=O)C2C3C=CC4(CN(Cc5cccnc5)C(=O)C24)O3)c(OC)c1 (configuration not stated),i
O=C(CN1C(=O)c2cccc3cccc1c23)NCc1ccccn1,3.0
Cc1nc(SCC(=O)NCc2ccco2)c2oc3ccccc3c2n1,i
CSc1nc(N)nc(SCC(=O)C23CC4CC(CC(C4)C2)C3)c1C#N,i
Cc1c(N=Cc2ccc(Cl)o2)c(=O)n(-c2ccccc2)n1C,i

# Next section:
SMILES,H5N1 CPE
CN(C)S(=O)(=O)c1cccc(C(=O)OCC(=O)NCc2ccccc2)c1,0.5
Clc1ccc(-c2noc(CSc3nnc(Cc4cccs4)n3-c3ccccc3)n2)cc1,2.5
COc1ccc(-c2nc(C#N)c(NCCCn3ccnc3)o2)cc1OC,i
CCOC(=O)c1cnc2c(Cl)cc(Cl)cc2c1NCCOCCO,1.0
N#CCSc1nnc2c(Cl)cc(Cl)cn12,1.0
O=C(NC1CCCCC1)n1c(=O)oc2ccccc21,i
COc1ccc(-c2csc(Cc3nnc4n3CCCCC4)n2)cc1OC,1.1
O=C(NCCCN1CCN(c2ccccc2F)CC1)Nc1ccc(F)cc1,0.2
CCOC(=O)CC(=O)CSc1ccc2nnc(-c3ccccc3)n2n1,3.3
CC(C)(C)OC(=O)N1CCC[C@H]1c1nnc(SCc2ccccc2Cl)o1,i
O=C1OC(Nc2ncccn2)c2ccccc21 (configuration not stated),i
COc1ccc(OCC(=O)Nc2ccc(Cl)cc2C(=O)c2ccccc2)cc1,0.2
Cc1nn(Cc2ccccc2)c(Cl)c1C(=O)OCc1nnc(-c2ccccc2)o1,i
Cc1ccc(C2C3=C(CC(C)(C)CC3=O)NC3=C2C(=O)CC(C)(C)C3)o1,0.9
O=c1[nH]n(-c2ncnc3c2cnn3-c2ccccc2)c(=O)c2ccccc12,0.9
Cc1ccc(CNC(=O)CCS(=O)(=O)c2cc(Br)cc3c2N(C(=O)C2CC2)CC3)o1,1.6
Cc1nc(-c2ccccc2)cs1,0.5
O=C(CSCc1ccccc1)N1CCc2ccccc21,1.0
CCOc1ccccc1-n1c(SCC(=O)NC(C)(C)C)nnc1-c1ccoc1C,0.7
Cc1cccc(N2CCN(C(=O)CCCSc3nc4ccccc4[nH]3)CC2)c1C,8.8
O=c1oc(-c2cccnc2)nc2ccccc12,i
CCCCCCCCn1cnc2c(N)c(C)c(C)cc21,i
CCN=C1SC(CC(=O)NC2CCCCC2)C(=O)N1CC (configuration not stated),0.3
CCN(CCCNC(=O)C1CCN(S(=O)(=O)c2cnc[nH]2)CC1)c1cccc(C)c1,i
CCCNS(=O)(=O)c1ccc(OCC(=O)NCCC2=CCCCC2)cc1,i
Cc1ccc(OCC(=O)N2CCN(C3=NS(=O)(=O)c4ccccc43)CC2)cc1,0.1
C=CCc1cc(OC)ccc1OCCON1C(=O)CCC1=O,i
Cc1cc(/C=C2/NC(=O)NC2=O)c(C)n1-c1sc2c(c1C#N)CCCC2,0.4
Cc1ccc(N(CC(=O)NC2CCCC2)C(=O)c2c(C)noc2C)cc1C,i
Cn1c(SCC(=O)NC(C)(C)C)nnc1-c1cnccn1,i

# As a short view, some entries already given:
SMILES,H5N1 CPE
O=C1OC(Nc2ncccn2)c2ccccc21 (configuration not stated),i
COc1ccc(OCC(=O)Nc2ccc(Cl)cc2C(=O)c2ccccc2)cc1,0.2
Cc1nn(Cc2ccccc2)c(Cl)c1C(=O)OCc1nnc(-c2ccccc2)o1,i
Cc1ccc(C2C3=C(CC(C)(C)CC3=O)NC3=C2C(=O)CC(C)(C)C3)o1,0.9
O=c1[nH]n(-c2ncnc3c2cnn3-c2ccccc2)c(=O)c2ccccc12,0.9
Cc1ccc(CNC(=O)CCS(=O)(=O)c2cc(Br)cc3c2N(C(=O)C2CC2)CC3)o1,1.6
Cc1nc(-c2ccccc2)cs1,0.5
O=C(CSCc1ccccc1)N1CCc2ccccc21,1.0
CCOc1ccccc1-n1c(SCC(=O)NC(C)(C)C)nnc1-c1ccoc1C,0.7
Cc1cccc(N2CCN(C(=O)CCCSc3nc4ccccc4[nH]3)CC2)c1C,8.8
O=c1oc(-c2cccnc2)nc2ccccc12,i
CCCCCCCCn1cnc2c(N)c(C)c(C)cc21,i
CCN=C1SC(CC(=O)NC2CCCCC2)C(=O)N1CC (configuration not stated),0.3
CCN(CCCNC(=O)C1CCN(S(=O)(=O)c2cnc[nH]2)CC1)c1cccc(C)c1,i
CCCNS(=O)(=O)c1ccc(OCC(=O)NCCC2=CCCCC2)cc1,i
Cc1ccc(OCC(=O)N2CCN(C3=NS(=O)(=O)c4ccccc43)CC2)cc1,0.1
C=CCc1cc(OC)ccc1OCCON1C(=O)CCC1=O,i

# Next compounds.
SMILES,H5N1 CPE
COc1ccc2c(=O)c(N3C(=O)c4ccccc4C3=O)c(C)oc2c1,0.5
Cc1nn(CC(=O)Nc2ccc3c(c2)nc(CCN2CCCCC2)n3C)c(=O)c2ccccc12,2.4
Cn1cc(Cl)c(C(=O)Nc2nc3ccc(Cl)cc3s2)n1,i
CC(CCc1ccccc1)NCc1ccncc1 (configuration not stated),2.4
CCCN(CCC)Cc1c(C(=O)OCC)nnn1-c1nonc1N,i
O=C(NCCc1ccc2c(c1)OCO2)C1CCN(S(=O)(=O)c2ccc(Cl)cc2)CC1,i
CCOC(=O)c1c2n(c3ccc(OC(C)=O)cc13)CCC2,0.9
CCOc1ccc(-c2cn(CCC#N)cn2)cc1,i
C=CCOc1ccc(C2N3CC4(CC)CN2CC(CC)(C3)C4=O)cc1 (configuration not stated),0.6
COc1ccc2cc3cc(C(=O)NCCCN4CCOCC4)oc3nc2c1,1.4
NC(=O)c1nc(N2CCOCC2)nc(N2CCOCC2)n1,i
O=C(Nc1ccc2ccccc2c1)c1cnccn1,0.1
O=C(CCCCCn1c(=S)[nH]c2ccccc2c1=O)N1CCOCC1,i
CCc1ccc(N(C)S(=O)(=O)c2ccc3[nH]cc(C(=O)NCCN4CCOCC4)c(=O)c3c2)cc1,i
CCOC(=O)c1cc(C#N)c(NCc2ccccc2)nc1C,0.1

# Single values from the results shown:
# H5N1 CPE result of `O=C(Nc1ccc2ccccc2c1)c1cnccn1` is entered as 0.1
# H5N1 CPE result of `C=CCOc1ccc(C2N3CC4(CC)CN2CC(CC)(C3)C4=O)cc1` (configuration not stated) is entered as 0.6

# (more compounds)
SMILES,H5N1 CPE
COc1ccccc1-n1cnc(N)c1C(=O)c1ccccc1,i
COc1ccc(-c2cc(C(=O)NC(C)C)no2)cc1,i
COC(=O)C(NC(=O)c1ccccc1)=C1C=C(C)OC(C)=C1,0.3
O=C(c1ccco1)N(CCCN1CCOCC1)c1nc(-c2ccc(F)cc2)cs1,i
c1cnc2c(OCc3cn4cccnc4n3)cccc2c1,1.0
COc1cccc(NC(=O)Cc2ccc(C)cc2)c1,0.1
CS(=O)(=O)c1ccc2nc(N)sc2c1,i
COc1ccc(N2CCN(C(=S)Nc3cccc(C)c3C)CC2)cc1,i
O=C1c2ccccc2C(=O)N1Cc1nc2ccccc2o1,i
COc1ccc(N2CCN(c3oc(Cc4cccc5ccccc45)nc3C#N)CC2)cc1,0.1
CCOc1ccc(Nc2nc(Cc3nnc(SCC(=O)O)o3)cs2)cc1,0.8
COc1ccccc1-n1c(SCC(=O)Nc2ccccc2C)nc(O)cc1=O,i
CC(C)(C)c1ccc(C(=O)N2CCC(C(=O)NCC3CCCO3)CC2)cc1 (configuration not stated),0.8
CCSc1nc(O)c(C2OC(=O)c3c2ccc(OC)c3OC)c(=O)n1-c1ccccc1 (configuration not stated),i
Cc1ccc(-n2c3c(cc(C(=O)O)c2=O)C(=O)CC(C)(C)C3)cc1,0.4
Nc1nc(-c2ccccc2)cc(N2CCCCC2)n1,i
Cn1nnnc1SCC(=O)N(C1CCCCC1)C1CCCCC1,0.1
O=C(COC(=O)c1n[nH]c(=O)c2ccccc12)c1ccc(Cl)cc1,0.2
Cc1ccc(CN2CC3CC(C2)c2cccc(=O)n2C3)cc1 (configuration not stated),0.9
O=C(COC(=O)c1cn(-c2ccccc2)nc1-c1ccccc1)c1cccc([N+](=O)[O-])c1,0.4
COC(=O)c1cc(=O)n(CCc2ccccc2F)c(=Nc2ccc(F)c(Cl)c2)s1,i
COc1ccc(N2CCN(CCCNS(=O)(=O)c3c(C)noc3/C=C/N(C)C)CC2)cc1,0.6
COc1ccc(Cl)cc1NC(=O)C1CCCO1 (configuration not stated),1.0
CCS(=O)(=O)c1nc2ccccc2n1CC(=O)N1CCOCC1,i
COc1cccc(CN2C(=O)Nc3ccccc3C(=O)N2C(C)(C)C)c1,i
CSc1nsc(SCc2ccc(Cl)cc2)n1,0.1
O=C(CCC(=O)c1ccc(Cl)cc1)OCC(=O)c1ccccc1,0.3
O=C(Cn1c(CN2CCCCC2)nc2ccccc2c1=O)Nc1ccccc1,i
CC1=C(C(=O)Nc2ccc(Cl)cc2)C(c2ccco2)NC(=O)N1 (configuration not stated),0.1
Cc1cccc(-c2nc(CN3CCCC(C(=O)NC4CCC(C)CC4)C3)c(C)o2)c1 (configuration not stated),i
CCCN(CC1CC1)C(=O)COC(=O)c1[nH]c(C)c(C(=O)OCC)c1C,i
CCNC(=O)C1CC(=O)N(c2ccc(OCC)cc2)C1 (configuration not stated),i
Cn1nnnc1SCC(=O)Nc1cc(C(=O)O)cc(C(=O)O)c1,0.0

# Source: PubChem (SRMLSC)
